# High-throughput results as filed in PubChem BioAssay.
# Mtb bLac sens – beta-lactam sensitization of Mtb H37Rv; M. tuberculosis H37Rv growth with meropenem, percent inhibition; hits of this screen are not shown here; inhibition, % at 25 µM; 0.27% of 330,000 active;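 active means about 74% or more and at least 40 points above the plate without the antibiotic, then above 30% in a dose series; inconclusive means first-round hits that could not be retested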;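 further: growth measured after seven days incubation then overnight dye step; 0% = bacteria only wells and 100% = bacteria with antibiotic; twin plates without the antibiotic show which effects depend on it; some results filed as inactive read as strong as hits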
# RecA intein inh – inhibitors of M. tuberculosis RecA intein splicing; cell-free RecA intein splicing, fluorescence; inhibition, %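 (about 9 µM by stock and volumes)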; 0.75% of 290,000 active; AID 2221; in the data active means inhibition above about 30%; inconclusive means no clear call, values can overlap the other calls;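 further: 0% = vehicle wells and 100% = reference inhibitor control wells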
# Target sequence (P9WHJ3 whole entry, looked up): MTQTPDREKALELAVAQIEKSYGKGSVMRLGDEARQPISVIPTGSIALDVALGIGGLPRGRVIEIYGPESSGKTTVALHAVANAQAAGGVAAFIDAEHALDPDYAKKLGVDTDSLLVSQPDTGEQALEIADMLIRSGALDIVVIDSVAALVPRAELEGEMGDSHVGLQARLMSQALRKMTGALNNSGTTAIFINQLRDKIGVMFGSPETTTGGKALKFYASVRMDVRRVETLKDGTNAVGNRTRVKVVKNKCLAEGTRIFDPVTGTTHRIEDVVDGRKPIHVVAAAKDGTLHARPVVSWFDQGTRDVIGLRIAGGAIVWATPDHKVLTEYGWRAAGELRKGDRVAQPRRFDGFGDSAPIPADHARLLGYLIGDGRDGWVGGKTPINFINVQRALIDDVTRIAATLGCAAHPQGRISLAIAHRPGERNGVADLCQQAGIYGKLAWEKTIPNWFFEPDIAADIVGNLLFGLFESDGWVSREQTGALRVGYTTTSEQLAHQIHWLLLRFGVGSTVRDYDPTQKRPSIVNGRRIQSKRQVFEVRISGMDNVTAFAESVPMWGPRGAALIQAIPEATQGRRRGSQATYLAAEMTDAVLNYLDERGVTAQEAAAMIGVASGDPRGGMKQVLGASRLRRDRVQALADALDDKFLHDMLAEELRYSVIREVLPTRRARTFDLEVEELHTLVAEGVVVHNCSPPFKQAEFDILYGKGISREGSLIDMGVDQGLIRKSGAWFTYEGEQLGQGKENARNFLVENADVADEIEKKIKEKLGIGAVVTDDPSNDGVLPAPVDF
# Arbovirus anti – arbovirus infection inhibition; arbovirus infection cell-based antiviral screen; inhibition, % at 10 µM; 0.37% of 200,000 active; AID 1251;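 active means inhibition from about 30%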;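 further: bluetongue infection of BSR cells; cell survival read as ATP light after 72 h; 0% = infected wells without compound and 100% = uninfected wells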
# YopH PTP inh – YopH (Yersinia) phosphatase inhibition | inhibition, %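 (about 10 µM by stock and volumes)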 | 0.16% of 140,000 active | fluorescence Ex485/Em525;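 active means inhibition of 50% or more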;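 further: controls were vehicle for no effect and minimum signal wells for full effect; inactives centre near -20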
# Mtb growth – M. tuberculosis H37Rv growth inhibitors, H37Rv strain (AID 1626) | M. tuberculosis H37Rv growth inhibition; higher % means a stronger effect | inhibition, % at 10 µM, or IC50 in µM where a hit was titrated | 0.95% of 220,000 active;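 active means confirmed in a dose series; inconclusive means inhibition above 80% but not taken into the dose series; inactive means below 80% or under 30% at every dose of the series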;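 further: bacteria incubated seven days before Alamar blue readout; 0% = bacteria only wells and 100% = bacteria with antibiotic wells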
# Arbovirus anti repeat – further read-out of Arbovirus anti, marked with its call; inhibition, %; measured here: 10K subset replicate screen; many hits read low in the repeat;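 first of two repeat runs on a subset; 0% = infected and 100% = uninfected wells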
# * marks the source's active call; other numbers are inactive results; u = inconclusive; x = not tested or not shown; & = joins results of further samples.
SMILES,Mtb bLac sens,RecA intein inh,Arbovirus anti,YopH PTP inh,Mtb growth,others
N#Cc1nc(-c2cccc3ccccc23)oc1NCCN1CCOCC1,64,-4.8,-8,-30,-1%,
CCOc1ccc(C(=O)NCC(=O)N2CCC3(CC2)NCCc2[nH]cnc23)cc1,7,-1.2,x,x,x,
N/C(=N\O)c1ccccc1N1CCCCC1,5,-4.2,-2,x,3%,
CC1(C)CC(NC(=O)C(Cl)(Cl)Cl)CC(C)(C)N1,1,-0.9,5,-24,-7%,
O=C(NCc1ccc(Cl)cc1)c1noc2c1CCCC2,-1,1.8,0,-33,10%,
CCCCCn1ccc(=N)cc1,-10,0.7,10,-6,-2%,
CCC(C(=O)NCCc1ccco1)n1nc(C)c2c(C)n(-c3ccccc3)nc2c1=O (configuration not stated),7,-0.8,x,x,x,
CCOCC(=O)Nc1ccc(S(=O)(=O)Nc2ncccn2)cc1,0,-0.7,6,-23,-10%,
O=C(NCCCc1ccccc1)C(=O)NCC1OCCN1S(=O)(=O)c1cc(F)ccc1F (configuration not stated),2,-0.3,x,x,x,
COCCN1C(=O)CS/C1=C(/C#N)C(=O)NCc1ccco1,0,2.7,5,x,1%,
Cc1c(C(=O)Nc2ccc3c(c2)OCO3)sc2nc(-c3ccccc3)cn12,0,1.8,-9,-34,2%,
CC1=C([N+](=O)[O-])C(c2ccccc2Cl)NC(=O)N1 (configuration not stated),6,-1.1,x,x,x,
O=C(COc1ccc([N+](=O)[O-])cc1)NNC(=O)Nc1cccc(F)c1,76,1.5,x,x,x,
COc1cc(/C=C(\NC(C)=O)C(=O)O)cc(OC)c1OC,-3,-0.2,x,x,-1%,
CCCCn1nnnc1NCc1ccc(N(CC)CC)cc1,1,-5.3,1,-17,0%,
S=C(Nc1ccc(N2CCOCC2)cc1)Nc1ccc2nc(-c3ccco3)c(-c3ccco3)nc2c1,48,-32,-39,0,x,
Cn1nc(-c2ccc(Cl)cc2)cc1NC(=O)CSCC(=O)O,-6,1.3,x,x,-7%,
CCN(CC)S(=O)(=O)c1ccc(C(=O)NCC(c2ccc(OC)cc2)N2CCOCC2)cc1 (configuration not stated),-2,-2.9,-1,x,-3%,
CC(OC(=O)c1cc(=O)[nH]c2ccccc12)C(=O)Nc1ccccc1F (configuration not stated),-3,-0.2,x,x,x,
CCCCn1c(=N)n(CC(=O)O)c2ccccc21,-8,-1.9,4,x,-12%,
C=CCn1c(=N)n(CC(=O)c2ccc(Cl)cc2)c2ccccc21,13,3.2,x,x,x,
CCOc1cccc(C(=O)Nc2cnn(Cc3ccccc3)c2)c1,-1,0.9,-24,-21,14%,
CC(=O)C1=C(C)NC(SCc2ccc(C#N)cc2)=C(C#N)C1c1ccco1 (configuration not stated),-6,x,-8,-8,-1%,
Cc1ccc(-c2noc(C3CCCN(C(=O)c4ccccc4Br)C3)n2)o1 (configuration not stated),6,3.3,x,x,x,
Cc1ccc(C(=O)NC(Cc2c[nH]c3ccccc23)C(=O)O)cc1 (configuration not stated),-7,-1.1,-2,-23,-7%,

# Quoted from the entries so far (24 entries):
SMILES,Mtb bLac sens,RecA intein inh,Arbovirus anti,YopH PTP inh,Mtb growth,others
CCOc1ccc(C(=O)NCC(=O)N2CCC3(CC2)NCCc2[nH]cnc23)cc1,7,-1.2,x,x,x,
N/C(=N\O)c1ccccc1N1CCCCC1,5,-4.2,-2,x,3%,
CC1(C)CC(NC(=O)C(Cl)(Cl)Cl)CC(C)(C)N1,1,-0.9,5,-24,-7%,
O=C(NCc1ccc(Cl)cc1)c1noc2c1CCCC2,-1,1.8,0,-33,10%,
CCCCCn1ccc(=N)cc1,-10,0.7,10,-6,-2%,
CCC(C(=O)NCCc1ccco1)n1nc(C)c2c(C)n(-c3ccccc3)nc2c1=O (configuration not stated),7,-0.8,x,x,x,
CCOCC(=O)Nc1ccc(S(=O)(=O)Nc2ncccn2)cc1,0,-0.7,6,-23,-10%,
O=C(NCCCc1ccccc1)C(=O)NCC1OCCN1S(=O)(=O)c1cc(F)ccc1F (configuration not stated),2,-0.3,x,x,x,
COCCN1C(=O)CS/C1=C(/C#N)C(=O)NCc1ccco1,0,2.7,5,x,1%,
Cc1c(C(=O)Nc2ccc3c(c2)OCO3)sc2nc(-c3ccccc3)cn12,0,1.8,-9,-34,2%,
CC1=C([N+](=O)[O-])C(c2ccccc2Cl)NC(=O)N1 (configuration not stated),6,-1.1,x,x,x,
O=C(COc1ccc([N+](=O)[O-])cc1)NNC(=O)Nc1cccc(F)c1,76,1.5,x,x,x,
COc1cc(/C=C(\NC(C)=O)C(=O)O)cc(OC)c1OC,-3,-0.2,x,x,-1%,
CCCCn1nnnc1NCc1ccc(N(CC)CC)cc1,1,-5.3,1,-17,0%,
S=C(Nc1ccc(N2CCOCC2)cc1)Nc1ccc2nc(-c3ccco3)c(-c3ccco3)nc2c1,48,-32,-39,0,x,
Cn1nc(-c2ccc(Cl)cc2)cc1NC(=O)CSCC(=O)O,-6,1.3,x,x,-7%,
CCN(CC)S(=O)(=O)c1ccc(C(=O)NCC(c2ccc(OC)cc2)N2CCOCC2)cc1 (configuration not stated),-2,-2.9,-1,x,-3%,
CC(OC(=O)c1cc(=O)[nH]c2ccccc12)C(=O)Nc1ccccc1F (configuration not stated),-3,-0.2,x,x,x,
CCCCn1c(=N)n(CC(=O)O)c2ccccc21,-8,-1.9,4,x,-12%,
C=CCn1c(=N)n(CC(=O)c2ccc(Cl)cc2)c2ccccc21,13,3.2,x,x,x,
CCOc1cccc(C(=O)Nc2cnn(Cc3ccccc3)c2)c1,-1,0.9,-24,-21,14%,
CC(=O)C1=C(C)NC(SCc2ccc(C#N)cc2)=C(C#N)C1c1ccco1 (configuration not stated),-6,x,-8,-8,-1%,
Cc1ccc(-c2noc(C3CCCN(C(=O)c4ccccc4Br)C3)n2)o1 (configuration not stated),6,3.3,x,x,x,
Cc1ccc(C(=O)NC(Cc2c[nH]c3ccccc23)C(=O)O)cc1 (configuration not stated),-7,-1.1,-2,-23,-7%,

# Next part:
SMILES,Mtb bLac sens,RecA intein inh,Arbovirus anti,YopH PTP inh,Mtb growth,others
Nc1ccc(C(=O)Nc2ccc(OC(F)(F)C(F)F)c(NC(=O)c3ccc(N)cc3)c2)cc1,73,-1.8,-20,9,12%,
COC(C(=O)Nc1ccnn1C1CCN(Cc2cccc(C)n2)CC1)c1ccccc1 (configuration not stated),2,-0.8,x,x,x,
CC(C)C(c1nnnn1C(C)(C)C)N1CCN(Cc2cccnc2)CC1 (configuration not stated),3,x,2,x,-2%,
OC1C(O)C(O)C(O)C(O)C1O (configuration not stated),1&85&-3,-0.7&-3.9&-0.8,x,x,x,
CC(=O)c1ccc(NC(=S)NC(NC(=O)c2ccco2)C(Cl)(Cl)Cl)cc1 (configuration not stated),-15,9.4,-4,-2,6%,
COc1ccc(NC2C=CS(=O)(=O)C2)c(OC)c1 (configuration not stated),-3,0.6,-1,15,0%,
C=C(C)CSc1nc2sc3c(c2c(=O)n1-c1ccccc1)CCN(C)C3,74,4.4,x,x,x,
Cc1cc([N+](=O)[O-])ccc1NC(=O)CCC(=O)N1CCCCC1,1,0.3,x,x,x,
Cc1ccc(S(=O)(=O)N2CC(O)CC2C(=O)NCc2ccc3c(c2)OCO3)cc1 (configuration not stated),-12,-1.1,1,x,-4%,
Cc1cccc(C(=O)O/N=C/c2ccc(Br)cc2)c1,42,2.7,-4,x,5%,
CCN(c1ccc(Cl)cc1)S(=O)(=O)c1nnc(NC(=O)C(C)C)s1,0,3.8,x,x,x,
CSc1ccc(C(=O)C2CCCN(S(=O)(=O)N(C)C)C2)cc1 (configuration not stated),1,1.9,4,x,-5%,
CC(C)(C)C1CCC(=NNC(=O)c2cc3c(s2)CCCC3)CC1 (configuration not stated),4,4.7,-21,-10,3%,
O=S(=O)(NCc1cccs1)c1cccc2cccnc12,10,0.4,0,-22,1%,
Cc1c(Cl)cccc1NC(=O)Cn1c(-c2ccc(F)cc2)noc1=O,1,-2.4,-1,x,-3%,
CCN(CC)C(=O)c1c[nH]c2ccc(S(=O)(=O)Nc3cc(C)cc(C)c3)cc2c1=O,-3,x,10,7,x,
CC(C)C(c1nnnn1Cc1ccc(F)cc1)N1CCN(C2CCCC2)CC1 (configuration not stated),0,-3.3,2,x,4%,
Cc1ccc(CSc2nnc(-c3ccncc3)n2C)cc1,-5,-1.3,1,9,-5%,
COCCNC(=O)CSc1nnc(NC(=O)C2CC(=O)N(c3ccccc3OC)C2)s1 (configuration not stated),-13,-3.4,x,x,x,
COc1ccc(C(=O)NCC(=O)OCc2csc(-c3ccccc3)n2)cc1,4,3.0,4,-22,2%,
COc1ccc(OCCSc2nnc(-c3ccccc3)n2N)cc1,-10,x,-8,-35,-2%,Arbovirus anti repeat=-6
CC1CCc2sc(C(=O)OCC(=O)NCc3ccc(F)cc3)cc2C1 (configuration not stated),5,1.3,4,-27,14%,
CC(C)(C)c1ccc(/C=C2\SC(=O)N=C2N)cc1,-2,-2.0,5,x,0%,
CCOc1ccc(N(CC(=O)NCCSCc2ccccc2)S(=O)(=O)c2ccccc2)cc1,5,0.8,x,x,x,
Cc1ccc(-c2n[nH]c(=S)n2/N=C/c2ccncc2)cc1,-9,3.3,0,x,-7%,

# (further entries)
SMILES,Mtb bLac sens,RecA intein inh,Arbovirus anti,YopH PTP inh,Mtb growth,others
O=C(CCC(=O)N1CCCCCC1)Nc1ccc([N+](=O)[O-])cc1,u,0.6,x,x,x,
CCOC(=S)NC(=O)c1sc2ccccc2c1Cl,8,13,-6,-37,11%,
Cc1cc(C)cc(NS(=O)(=O)c2cnc(Cl)c(Cl)c2)c1,-22,8.4,1,-25,2%,
O=C(NCc1ccccn1)Nc1ccc(Cl)cc1Cl,-9,0.2,x,x,x,
Cc1c(Cl)cccc1NC(=O)C(=O)NNC(=O)c1ccccc1F,99,-4.6,-2,x,u,
Cc1[nH]c(=S)c(C#N)c(C)c1Cc1ccc(Cl)cc1Cl,-4,1.2,x,x,-7%,
O=C(N/N=C/c1cc(Cl)cc(Cl)c1O)c1ccncc1,100,-12,x,x,79%,
Cc1ccc2oc(=O)c(/C=C(\O)CC(C)C)nc2c1,11,-5.9,-2,-26,-11%,
CSc1nc(N)c(N=Nc2ccc([As](=O)(O)O)cc2)c(=O)[nH]1,3,15,x,x,-5%,
CC1N/C(=C\C(=O)c2ccccc2)N(O)C1(C)C (configuration not stated),-9,-5.5,-4,-28,4%,
COc1ccccc1COc1ccc2c(C)c(CCC(=O)O)c(=O)oc2c1C,4,3.8,x,x,x,
CN(C)C(=O)Oc1ccc(OC(=O)N(C)C)cc1,2,x,10,-25,-7%,Arbovirus anti repeat=-2
O=S(=O)(Nc1ccc(Cl)cn1)c1ccc(Cl)cc1,-5,-1.1,1,x,-4%,
CC1=C/C(=C(\c2cc(C)c(O)c(Br)c2)c2ccccc2S(=O)(=O)O)C=C(Br)C1=O,18,11,x,x,x,
CC(C)CNC(=O)c1ccc(C2SCC(=O)N2Cc2ccccc2)cc1 (configuration not stated),3,-1.7,5,x,-1%,
Cc1ccc(-c2cccc(CN3CCN(C4CCN(C(C)C)CC4)C(CCO)C3)c2)o1 (configuration not stated),4,-1.4,-18,x,10%,
COc1ccc(-n2nc(C(=O)NCC(=O)N3CCC(C)CC3)c3ccccc3c2=O)c(OC)c1,-5,1.1,x,x,x,
c1ccc(CC2CCN(c3nnnn3-c3ccccc3)CC2)cc1,-4,15,-6,-42,x,
CN1CCN(C(=O)c2ccc3c(=O)n4c(nc3c2)CCCCC4)CC1,0,0.5,1,-1,3%,
CCC(C)NC(=O)c1cn(-c2cccc(C)n2)cn1 (configuration not stated),8,-3.1,1,6,-1%,
CCc1cccc(C)c1NC(=O)COC(=O)C(NS(=O)(=O)c1ccc(Cl)cc1)C(C)O (configuration not stated),2,-0.5,7,-10,-1%,
O=C(C1=C[C@H](c2ccc(Br)cc2)C[C@H](OCCCCO)O1)N1CCN(Cc2ccccc2)CC1,52,5.4,-11,x,-4%,
O=C(NCCc1nnc2ccc(NCc3ccc(Cl)cc3)nn12)c1ccccc1,5,6.7,1,x,10%,
Cc1ccc(C)c(NC(=O)C2COc3ccccc3O2)c1 (configuration not stated),-5,1.6,x,x,x,

# The list is partial; count on the stated rates, not on these rows.
